UCH37 DUB inh: inhibitors of human deubiquitinating enzyme UCH37; purified proteasome/UCH37, Ub-AMC cleavage fluorescence; inhibition, % (no concentration beside the values); AID 588478; hit rate 0.33% among 330,000;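 active = mean of two replicates above 20%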;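 also: 0% = compound-free wells with enzyme and 100% = wells lacking proteasome; stock transfer was 100 nL into about 20 µL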
Target sequence (Q9Y5K5 whole entry, looked up): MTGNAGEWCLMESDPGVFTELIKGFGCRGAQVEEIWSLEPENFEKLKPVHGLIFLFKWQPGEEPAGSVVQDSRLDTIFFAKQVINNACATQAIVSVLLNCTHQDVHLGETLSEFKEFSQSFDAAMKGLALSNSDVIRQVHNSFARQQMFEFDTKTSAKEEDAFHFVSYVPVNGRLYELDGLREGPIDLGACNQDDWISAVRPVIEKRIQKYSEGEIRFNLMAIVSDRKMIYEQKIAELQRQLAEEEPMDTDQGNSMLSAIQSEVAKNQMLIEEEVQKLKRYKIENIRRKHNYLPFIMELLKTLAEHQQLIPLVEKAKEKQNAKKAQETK
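Signal – fluorescence, ex 355 nm, em 460 nm · System – Proteasome-bound UCH37 · Input – 0.15 nM proteasome as dispensed · Timing – 30 min preincubation with enzyme, 25 min cleavage at room temperature · Read-out basis – percent inhibition of cleavage signal versus uninhibited and no-proteasome wells · Medium – Tris-HCl pH 7.4 with ATP-MgCl2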
LANA-H2A inh: blocks KSHV LANA binding to histone H2A/H2B | inhibition, % (no concentration beside the values) | cell-free LANA-H2A/H2B peptide, fluorescence polarization | Q9QR71 | hit rate 0.6% among 320,000; in the data active = inhibition mostly above about 10%, no sharp cut-off; inactive = mostly below about 6.7%;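 also: stock transfer was 7.5 nL into about 10 µL; 0% = median of vehicle wells and 100% = median of positive control wells; one replicate is shown; the record names a cut of 25% in any replicate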
Vif A3G: inhibitors of Vif binding to APOBEC3G peptide, primary screen, biochemical, TR-FRET, GST-Vif 1-94, biotin-A3G peptide, dose response retest (AID 1117319); one-dose inhibition, %; IC50 in µM for titrated hits; TR-FRET GST-Vif / biotin-A3G peptide binding; higher % means a stronger effect; test concentration not given here; strong numbers were not always called active; hit rate 0.57% among 260,000;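 active = above the screen mean plus three standard deviations and confirmed in dose response; inconclusive = results disagree or hit not tested in dose response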;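 also: Vif residues 1-94 fused to GST binding biotinylated APOBEC3G peptide 110-148; 0% = full assay without inhibitor and 100% = GST in place of GST-Vif; retest series ran down from 100 µM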
E coli growth: inhibitors of Escherichia coli growth; OD600, 23 h; active compounds read low; OD600 absorbance (test concentration not listed); hit rate 0.21% among 330,000; AID 1053175;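 active = OD600 absorbance below the run mean of sample wells minus 3.6 SD, in any replicate, cut at about 0.56 in these data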;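 also: stock transfer was 300 nL into about 60 µL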
B2AR ag: activates human beta-2 adrenergic receptor causing internalization; P07550; Am2.2-beta2AR cells, FAP receptor internalization, flow cytometry; reference of the scale not given here; response, % (test concentration not listed); hit rate 0.43% among 340,000; AID 504454;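 active = response above a set limit, near 3 SD of response in nonfluorescent compounds, cut at about 42% in these data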;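 also: stock transfer was 100 nL into about 11 µL; a reference agonist was the positive control; negative values mostly stem from fluorescent compounds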
A1 inh: inhibitors of the anti-apoptotic protein A1, read as caspase activation | MEF A1-2A-BIM cells, Caspase-Glo 3/7 luminescence, 3 h; percent of clofoctol response, vehicle zero | caspase activation, % (test concentration not listed) | hit rate 0.066% among 330,000 | AID 2462;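 active = over half of replicate activation scores above 10%, or exactly half above 10 with the replicate mean above 10; inconclusive = replicate mean below 10 yet half the replicates above 10; inactive = over half of replicates below 10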;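 also: wells of about 30 µL received 50 nL stock; many hits fall short of the cut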
HNF4A DNA FP: change in binding of human HNF4 alpha to DNA; P41235; HNF4a-FITC DNA binding, fluorescence polarization, 1 h; activity change, % at 10 µM; hit rate 0.3% among 360,000; AID 1224865; in the data active = activity change above about 30%, passing the limit was not always enough;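 also: controls were the assay level and a saturating level of protein; the project sought stronger binding though the title names inhibitors; some compounds called inactive have numbers as strong as hits; positive values seem to mean higher polarization but the record does not say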
Target sequence (P41235 whole entry, looked up): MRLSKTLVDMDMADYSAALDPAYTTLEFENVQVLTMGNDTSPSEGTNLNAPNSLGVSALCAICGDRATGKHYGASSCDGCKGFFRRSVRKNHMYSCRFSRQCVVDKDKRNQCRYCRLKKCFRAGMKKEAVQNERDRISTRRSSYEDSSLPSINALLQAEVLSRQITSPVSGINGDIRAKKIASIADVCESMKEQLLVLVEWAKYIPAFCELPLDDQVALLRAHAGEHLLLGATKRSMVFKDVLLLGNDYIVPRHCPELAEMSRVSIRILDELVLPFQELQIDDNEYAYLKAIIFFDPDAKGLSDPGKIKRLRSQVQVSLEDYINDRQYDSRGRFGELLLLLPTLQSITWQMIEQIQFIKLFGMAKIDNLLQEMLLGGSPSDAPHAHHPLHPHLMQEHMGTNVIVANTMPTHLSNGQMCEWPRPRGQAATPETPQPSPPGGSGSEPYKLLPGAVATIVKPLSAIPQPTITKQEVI
* hit, by the source's call; ? = inconclusive; nt = not tested or not shown. Hits appear at their usual frequency, and some 2.1% of all compounds hit somewhere here.

SMILES	UCH37 DUB inh	LANA-H2A inh	Vif A3G	E coli growth	B2AR ag	A1 inh	HNF4A DNA FP
COc1ccccc1NC(=O)N1CCC(NC(=O)C(Cc2ccccc2F)NC(C)=O)CC1 (stereo not given)	nt	-5.7	5%	nt	0	0.5	-2.0
COc1cccc(-c2csc(N3CCN(C(=S)Nc4ccc(Cl)cc4)CC3)n2)c1	1.7	-2.3	2%	0.66	-3	0.1	7.0
CCOC(=O)c1c(C)nc2c(c1-c1ccc(Cl)cc1)C(=O)CC(C)(C)C2	0.8	3.5	11%	0.66	-5	-0.4	2.7
COc1cc(OC)c(OC)cc1/C=N/NC(=O)CCc1c(C)n[nH]c1C	nt	2.3	-3%	nt	-6	1.9	2.9
CCCCCN(C(=O)CCC(=O)OCc1cccc(Br)c1)c1c(N)n(CCCC)c(=O)[nH]c1=O	4.3	-8.1	-2%	0.65	3	0.4	2.0
Nc1cc(C(=O)c2ccccc2)ccc1N1CCOCC1	4.7	1.9	7%	0.73	-1	-2.1	-0.3
CCCCOc1ccc(-c2c(C(=O)Nc3ccccc3)c(C)[nH]c(=S)c2C#N)cc1	2.5	0.1	-144%	0.69	-7	1.0	3.2
CS(=O)(=O)CCC(C(=O)OCc1ccc(Cl)cc1)N1C(=O)c2ccccc2C1=O (stereo not given)	6.3	-7.5	nt	0.71	6	1.1	-1.1
Cc1ccccc1OCCCN1C(=O)C(=O)c2cccc(C)c21	2.7	0.4	6%	0.72	10	0.1	-4.3
CC1(C)CC(=O)C2=C(C1)OC(N)=C(C#N)C21CCC2(CC1)OCCO2	3.8	0.8	7%	0.71	4	-0.2	1.6

Next section, starting with the last five of the part before.
SMILES	UCH37 DUB inh	LANA-H2A inh	Vif A3G	E coli growth	B2AR ag	A1 inh	HNF4A DNA FP
Nc1cc(C(=O)c2ccccc2)ccc1N1CCOCC1	4.7	1.9	7%	0.73	-1	-2.1	-0.3
CCCCOc1ccc(-c2c(C(=O)Nc3ccccc3)c(C)[nH]c(=S)c2C#N)cc1	2.5	0.1	-144%	0.69	-7	1.0	3.2
CS(=O)(=O)CCC(C(=O)OCc1ccc(Cl)cc1)N1C(=O)c2ccccc2C1=O (stereo not given)	6.3	-7.5	nt	0.71	6	1.1	-1.1
Cc1ccccc1OCCCN1C(=O)C(=O)c2cccc(C)c21	2.7	0.4	6%	0.72	10	0.1	-4.3
CC1(C)CC(=O)C2=C(C1)OC(N)=C(C#N)C21CCC2(CC1)OCCO2	3.8	0.8	7%	0.71	4	-0.2	1.6
CC(C)c1ccc(OCc2ccc(C(=O)N3CCCC3)o2)cc1	3.7	-0.7	nt	0.63	2	-0.2	-0.3
CC(=O)OC1CSc2nc3ccccc3n2C1 (stereo not given)	1.7	-2.2	15%	0.71	-7	0.5	-2.2
Nc1nc(N)nc(-c2ccc(Oc3ccccc3)cc2)n1	2.1	0.9	0%	0.61	-6	0.6	2.7
CCOC(=O)NC(=S)Nc1ccc(C(C)(C)C)cc1Br	2.2	0.0	2%	0.68	0	-0.6	-2.5
CN1CCc2c(sc(N)c2C(N)=O)C1	-26	-6.2	?	0.72	0	0.1	1.6
Cc1ccc(N2C(=O)C(O)(C(F)(F)F)C3=C2CC(C)(C)CC3=O)cc1C (stereo not given)	3.0	2.8	-3%	0.72	-4	0.4	0.0
CCN(CC)S(=O)(=O)c1csc(C(=O)Nc2ccccn2)c1	2.6	-1.2	1%	0.7	-14	-0.7	4.8
COc1ccc(C(=O)C(C)OC(=O)CNC(=O)c2ccco2)cc1 (stereo not given)	-0.6	0.9	nt	0.62	6	-1.0	-1.6
CC(=O)Cn1nnc(-c2ccc(C(F)(F)F)cc2)n1	3.3	-6.9	9%	0.68	0	0.1	0.0
O=C(CCc1ccccc1)NCCc1ccc(F)cc1	5.9	14	nt	0.68	5	-0.2	-2.3
CC(=O)c1cccc(CN(C)CC2CCCN(CCc3ccccc3C)C2)c1 (stereo not given)	4.1	3.5	nt	0.66	0	-0.1	2.9
Cc1ccc(NC(=O)CSCC(=O)NC2(C)CCS(=O)(=O)C2)cc1 (stereo not given)	0.7	3.0	-8%	0.68	10	0.0	-1.2
Nc1[nH]nc2nc(NCc3ccccc3)c3c(c12)CCN(Cc1ccccc1)C3	0.9	3.7	24%	0.64	-10	-0.3	0.6
FC(F)(F)c1nc(NCc2ccccc2)c2nnn(Cc3ccccc3)c2n1	3.3	9.4	nt	0.7	-13	-0.9	-3.7
Cc1ccc(C)c(OCCn2cc(C(=O)O)c3ccccc32)c1	0.2	1.3	4%	0.69	-3	0.9	3.0
Cc1cccc(C)c1NC1=NC(=S)N(c2ccc(N(C)C)cc2)C1(C)C	-0.3	2.2	7%	0.69	7	0.3	-0.7
CC(NC(=O)c1cccc(S(=O)(=O)N(C)C)c1)C1CC2CCC1C2 (stereo not given)	1.1	-9.1	nt	0.66	-4	1.1	1.1
Cc1sc2nc(CSCC(=O)Nc3ccc(N4CCOCC4)cc3)[nH]c(=O)c2c1C	-1.8	0.9	20%	0.66	6	-0.3	6.0
COc1cc(C2N=C(c3ccccc3)NO2)cc(Br)c1O (stereo not given)	-1.9	5.1	12%	0.74	-4	-7.9	1.1
Cc1ccc(S(=O)(=O)N2CCN(C(=O)c3ccc(Cl)nc3)CC2)cc1	-1.3	-2.0	1%	0.68	3	0.6	0.5
COc1cc(-c2nnc(COC(=O)c3nn(CC(C)C)c(=O)c4ccccc34)o2)cc(OC)c1OC	4.9	-0.5	4%	0.68	2	-0.4	-0.3
Oc1ccc(Br)cc1C=Nc1ccc(Cl)cc1	1.5	1.3	nt	0.64	10	0.7	-2.0
c1cc2c(cc1C1CCCCC1)c1c3n2CCCNC3CCC1 (stereo not given)	-0.6	7.6	nt	0.59	44*	1.0	3.6
CC(=O)Nc1c(-c2ccc3ccccc3c2)nc2ccccn12	-68	0.3	2%	0.69	-7	-2.8	-1.5
CC[n+]1c(C)cc(C)n1-c1ccccc1	5.9	-7.4	nt	0.71	-1	0.5	-3.1
COc1ccc2nc(C)cc(SCC(=O)NNC(=O)COc3ccccc3)c2c1	-6.1	0.3	1%	0.67	-3	-0.9	1.7
COc1ccc(C(=O)NCc2ccncc2)cc1S(=O)(=O)NCc1ccc(Cl)cc1	0.5	-4.5	0%	0.67	1	1.6	-0.3
O=C(c1ccco1)N1CCN(Cc2nnnn2C2CCCCC2)CC1	3.3	-0.6	nt	0.7	-14	-0.4	1.3
COc1cccc(-n2c(SCC(=O)Nc3nc4ccccc4s3)nc3ccccc3c2=O)c1	1.8	-2.0	-7%	0.78	nt	0.4	nt
CN(C(=O)COC(=O)c1ccc2c(=O)n3c(nc2c1)CCC3)c1ccccc1	-9.9	1.7	-1%	0.7	-13	-0.2	0.1
COC(=O)c1ccsc1NC(=O)c1ccccc1	-22	-2.4	3%	0.7	0	0.0	0.6
Cc1ccc(-c2csc(NC(=O)c3cccc(C)c3)c2C(=O)O)cc1	-1.3	-1.2	nt	0.7	9	-7.6	3.2
O=C(Nc1ccc(C(=O)N2CCCCC2)cc1)c1cccs1	3.2	2.1	nt	0.66	-11	-9.3	-1.3
CCOc1cc(CO)cc(Br)c1OCC(N)=O	0.0	-3.0	1%	0.68	-9	1.1	1.0
CCN(C(=O)CSc1nnc(-c2cccc(F)c2)n1N)c1c(N)n(Cc2ccccc2)c(=O)[nH]c1=O	2.4	nt	-2%	0.7	-9	nt	2.8
CC(=O)Nc1cccc(C(=O)OC(C)C(=O)NC(=O)NC2CCCCC2)c1 (stereo not given)	-1.9	-2.0	-1%	0.67	4	-0.2	0.1
Cc1ccsc1/C=N/n1c(=S)[nH]nc(C)c1=O	nt	nt	0%	nt	-2	-0.8	-1.8
NC(=S)N/N=C/c1coc2ccc(O)cc2c1=O	nt	0.5	-6%	nt	8	0.0	-2.6
CC(C)Oc1ccc(S(=O)(=O)N2CCCCC2)cc1NC(=O)C1CSC2(C)CCC(=O)N12 (stereo not given)	-3.0	nt	0%	0.69	-4	-1.3	0.1
CCOc1ccc2nc(N3CCCC(C(=O)NCCCN4C(C)CCCC4C)C3)sc2c1 (stereo not given)	5.7	0.7	nt	0.69	2	-0.1	3.4
CC(C)(C)OCC(O)CN1CCN(C(=O)c2ccccc2)CC1 (stereo not given)	3.0	-0.7	4%	0.68	0	0.0	2.2
Cc1cc(=O)[nH]c2ccc(Cl)cc12	2.7	-6.0	14%	0.74	-11	0.6	1.2
COCCn1c(SCC(=O)N2CCCCC2)nc2cccnc21	0.0	0.9	3%	0.69	-9	-0.2	2.3
CCOCCCN1CC(C(=O)NCc2ccc3c(c2)OCO3)CC1=O (stereo not given)	-0.6	-3.2	23%	0.7	10	1.4	1.1
COc1ccc(Nc2ccc([N+](=O)[O-])cn2)cn1	7.8	2.0	nt	0.69	11	-0.3	-13
COc1ccc(NC(=O)CSc2nnc(CC(=O)Nc3ccc(F)cc3)n2C)cc1	4.1	-1.0	nt	0.7	-1	1.1	3.4
CC(C)(C)NC(=O)CSc1nnc(-c2ccncc2)o1	2.2	1.5	nt	0.7	-7	-1.1	-0.6
CCCCNC(=S)N1CCN(c2ccccc2Cl)CC1	-0.5	-7.1	-13%	0.65	-14	-0.7	1.9
Cc1nnc(NCCO)c2ccccc12	5.0	3.2	-4%	0.66	-5	0.2	-1.5
CCCC/C(O)=C1\C(=O)CCCC1=NCCc1c(C)[nH]c2ccc(OC)cc12	1.7	3.7	4%	0.69	3	0.7	0.6
Next results
SMILES	UCH37 DUB inh	LANA-H2A inh	Vif A3G	E coli growth	B2AR ag	A1 inh	HNF4A DNA FP
CCOC(=O)c1c(C)nc2c(c1C)c(=O)oc1ccccc12	0.9	1.5	5%	0.73	7	-0.6	4.5
CCc1ccccc1N(CC)C(=O)CCc1nc(-c2ccc(C)cc2)no1	1.8	3.5	72%	0.7	10	0.3	1.3
O=C(CN1CCS(=O)(=O)CC1)N/N=C/c1cccc(C(F)(F)F)c1	nt	0.1	nt	nt	1	-0.5	0.8
CCCc1c(C(=O)Nc2ccc(F)cc2C)cnn1-c1ccccc1	2.0	-5.7	-2%	0.68	-11	0.6	0.7
FC(F)(F)c1cc(N2CCN(Cc3ccccc3)CC2)c2ccccc2n1	1.3	6.4	3%	0.68	8	-0.9	-0.3
O=C(CSCc1ccccc1)N=Nc1c(O)[nH]c2ccccc12	6.0	7.3	-2%	0.64	-7	-0.4	1.4
Cc1cc(C(=O)N/N=C/c2ccc(C)o2)c2ccccc2n1	nt	1.6	2%	nt	4	-1.2	1.5
CN1C(=O)N(C)C2CC1N(C)C(=O)N2C	2.0	-2.7	?	0.69	2	0.4	8.3
O=C(CCS(=O)(=O)c1cc2c(cc1Cl)NC(=O)CO2)NCc1ccc(F)cc1	4.5	1.7	nt	0.72	4	1.4	2.8
COc1cccc(CNC(=O)c2ccc(C)c(S(=O)(=O)N3CCCCC3)c2)c1	-2.2	3.4	-1%	0.68	-7	-0.3	1.4
O=C(/C=C/c1ccc([N+](=O)[O-])cc1)c1cccnc1	3.1	-1.2	?	0.67	0	1.0	1.6
Cc1ccc(S(=O)(=O)NC(CC(=O)n2nc(C)cc2C)c2ccccc2)cc1 (stereo not given)	-1.2	-3.0	0%	0.78	3	0.0	1.2
Cc1cc(N2CCN(c3ccc(C(F)(F)F)cc3[N+](=O)[O-])CC2)c2ccccc2n1	0.4	16	nt	0.64	-15	-0.3	1.6
CC1(c2ccccc2)NC(=O)N(CC(=O)Nc2cc(C(F)(F)F)ccc2N2CCCCC2)C1=O (stereo not given)	2.6	nt	1%	0.7	3	nt	0.5
Cc1nnsc1C(=O)Nc1ccc(S(=O)(=O)N2CCCC(C)C2)cc1 (stereo not given)	4.6	nt	-3%	0.69	5	nt	-6.0

Compound activity from PubChem BioAssay.
